# Bioassay records: PubChem, National Center for Advancing Translational Sciences (NCATS)
# Six1-Eya2 blk = qHTS Assay for Inhibitors of the Six1/Eya2 Interaction. AlphaScreen GST-Six1/His-Eya2 binding, biochemical; hits give low values; control for the full effect not named in the record. AID 651725, 2012. activity change, % (test concentration not listed). actives 0.56% (n = 360,000). Homeobox protein SIX1 (Homo sapiens) + Protein phosphatase EYA2 (Homo sapiens), …; in the data active = activity change below about -65%; inconclusive = about -30% to -65%; inactive = above about -30%; also: % is scaled to controls: 0 for no effect and ±100 for the full control effect; compound concentration not given in the record
# Target sequence (O00167 whole entry, looked up): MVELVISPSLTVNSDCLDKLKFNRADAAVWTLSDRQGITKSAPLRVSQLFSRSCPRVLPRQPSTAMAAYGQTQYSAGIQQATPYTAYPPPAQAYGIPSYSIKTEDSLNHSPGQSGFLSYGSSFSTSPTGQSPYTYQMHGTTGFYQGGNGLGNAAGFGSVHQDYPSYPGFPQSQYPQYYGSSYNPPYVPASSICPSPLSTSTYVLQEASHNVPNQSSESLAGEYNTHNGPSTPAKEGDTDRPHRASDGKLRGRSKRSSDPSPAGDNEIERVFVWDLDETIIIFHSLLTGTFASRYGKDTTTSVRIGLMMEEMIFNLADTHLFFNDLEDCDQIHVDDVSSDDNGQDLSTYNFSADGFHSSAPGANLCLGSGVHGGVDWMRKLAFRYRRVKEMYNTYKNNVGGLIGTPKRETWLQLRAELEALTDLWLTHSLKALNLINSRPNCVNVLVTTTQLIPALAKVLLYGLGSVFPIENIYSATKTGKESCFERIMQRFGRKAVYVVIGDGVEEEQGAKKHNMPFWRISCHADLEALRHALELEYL
# Target sequence (Q15475 whole entry, looked up): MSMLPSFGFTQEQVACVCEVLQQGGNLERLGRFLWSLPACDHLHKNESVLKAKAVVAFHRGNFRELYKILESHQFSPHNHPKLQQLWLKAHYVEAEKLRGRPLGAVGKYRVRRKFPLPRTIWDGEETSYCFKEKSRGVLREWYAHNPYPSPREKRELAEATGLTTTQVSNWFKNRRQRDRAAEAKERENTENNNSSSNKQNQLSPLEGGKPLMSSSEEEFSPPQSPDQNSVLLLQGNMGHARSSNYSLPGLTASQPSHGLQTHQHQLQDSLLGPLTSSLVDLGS
#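 AlphaScreen with GST-Six1 and His-Eya2 (5X mix: 250 nM and 500 nM), glutathione donor and nickel acceptor beads; buffer 50 mM Tris pH 8.0, 300 mM NaCl, 1 mM TCEP; 1 h at 37 C in the dark.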
# D2 PAM = Beta-Arrestin HTS for Positive Allosteric Modulators of the Human D2 Dopamine Receptor: Potentiators. potentiation, % (test concentration not listed). actives 0.23% (n = 360,000). DiscoveRx D2 beta-arrestin cells, luminescence, 90 min; 100% = 57 uM dopamine signal. D(2) dopamine receptor (Homo sapiens), P14416; active = potentiation of 50% or more; inconclusive = 30% to 50%; inactive = 30% or less;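 also: compound concentration not given in the record; tested on top of an EC20 dose of dopamine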
#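 PathHunter D2 cells, attached overnight at 37 deg C, received compound in DMSO plus dopamine at EC20 (50 nM final) for 90 min at 37 deg C. Beta-arrestin recruitment was read as luminescence after 1 h with detection reagent at ambient temperature.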
# TRPML1 blocker = qHTS for Inhibitors of the Human Mucolipin Transient Receptor Potential 1 (TRPML1). Mucolipin-1 (Homo sapiens), Q9GZU1. TRPML1-inducible cells, Ca2+ dye fluorescence, FDSS; hits give low values; inhibition of EC80 agonist-evoked calcium signal. activity change, negative = inhibition, % (concentration not given with the values). actives 0.02% (n = 390,000); in the data active means activity change below about -50%; inconclusive means about -30% to -50%; inactive means above about -30%;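 also: stimulus is agonist 54-4 at its EC80 concentration; % is scaled to controls: 0 for no effect and ±100 for the full control effect; compound concentration not given in the record; the text of the record puts the active cut at -80%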
#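 Calcium fluorescence in TRPML1-DL cells induced overnight with Tet: a 110 s read after compound pin addition, then a 110 s antagonist read after challenge with 54-4 at 4 uM final (EC80).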
# TRPML1 ag = qHTS for Agonists of the Human Mucolipin Transient Receptor Potential 1 (TRPML1); Mucolipin-1 (Homo sapiens), Q9GZU1; TRPML1-expressing cells, Ca2+ dye fluorescence, FDSS; host cell line not named in the record; reference of the full effect not given here; activation, % (no concentration beside the values); actives 0.12% (n = 410,000); in the data active = activation above about 50%; inconclusive = about 30% to 50%; inactive = below about 30%; also: 0% is about no effect; the text of the record puts the active cut at 80%
#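 TRPML1-DL cells, Tet-induced overnight (~16 h, 37 degrees C), loaded 45-90 min at room temperature with Ca8 no-wash calcium dye plus quencher. FDSS fluorescence: 10 s baseline, compound pin-transfer, 110 s agonist read, then EC80 54-4 (4uM final) and 110 s antagonist read.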
# PINK1 modulator = A Quantitative High throughput Screen to Identify Chemical Modulators of PINK1 Expression; PINK1 immunofluorescence, high-content cytometry, 24 h; Potency, µM (highest dose often 76.6 µM), inactives show top-dose activation (PINK1 increase), hits mostly activators; actives 0.2% (n = 410,000); active = well fitted activation curve with a large enough effect; inconclusive = small, poorly fitted or top-dose-only effect; inactive = flat fitted curve, though single readings scatter; cell line not stated here;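 also: potency is read from the fitted curve at half-maximal effect; % of control where 0% means no effect; nearly all actives have a fitted effect of over 65% in size; a mitochondrial uncoupler was the plate control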
#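 Stable cell line treated 24 h with compounds at 5 concentrations (CCCP controls), then fixed and immunostained for PINK1 plus nuclear and cell stains; PINK1 immunofluorescence quantified by laser-scanning microplate cytometry.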
# D2 ag = Beta-Arrestin HTS for Positive Allosteric Modulators of the Human D2 Dopamine Receptor: Agonists; D(2) dopamine receptor (Homo sapiens), P14416; DiscoveRx PathHunter D2 beta-arrestin, luminescence, 90 min; 100% = 57 uM dopamine signal; activation, % (concentration not given with the values); actives 0.084% (n = 360,000); in the data active = activation above about 40%; inconclusive = about 15% to 40%; inactive = below about 15%; also: compound concentration not given in the record; the text of the record calls up to 30% inactive
#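 DiscoveRx PathHunter D2 beta-arrestin cells (2,100/well) attached overnight, then compound-stimulated 90 min at 37 C in HBSS/10 mM HEPES/0.1% Tween-20 buffer; beta-galactosidase complementation read by luminescence after 1 h at ambient temperature. Dopamine 57 uM final (EC100) as control.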
# Active calls of the source: *; ? = inconclusive; nt = no result given; & = joins results of further samples; [ ] = dose if it differs, or a comment.
SMILES,Six1-Eya2 blk,D2 PAM,TRPML1 blocker,TRPML1 ag,PINK1 modulator,D2 ag
CCC(=O)N1CCc2cc(S(=O)(=O)CCC(=O)N(C)c3ccc(OC)cc3OC)ccc21,2,-10,4,-0.5,-1.3%,-3.4
CCCC(=O)NC(C)c1nc2ccccc2n1CC (stereo not given),-2,0,-4,0.5,0.0%,-4.3
O=C1CN(CC(=O)Nc2ccc(Cl)cc2)CCN1,5,-20,47,0.8,-0.1%,-2.9
Cc1cc(C)n2nc(C(=O)Nc3cccnc3)nc2n1,8,-10,-14,-0.7,-0.3%,-1.6
CC(C)Cc1ccc(C(=O)NCCOc2ccccc2)o1,11,-3,2,1.1,2.0%,7.5
O=C(NCC1CCN(Cc2cccc(Cl)c2)CC1)Nc1ccc(F)c(Cl)c1,nt,nt,31,1.8,20%,nt
O=C1NC[C@H](c2ccccc2)OC(=O)[C@H](Cc2ccc(F)cc2)C/C=C\C[C@H]1CC(=O)N(CCO)Cc1ccccc1,7,?,-9,1.2,-1.1%,?
Cc1nc2ccc(NC(=O)c3cc(S(=O)(=O)N4CCOCC4)ccc3C)cc2s1,-6,18,32,-1.7,1.2%,-0.5
CN1C(=O)CCC2(c3ccccc3)CC=C(O)C=C12 (stereo not given),1,2,-4,-0.7,-2.1%,2.2
Cc1nc2c(N=Nc3ccccc3F)c(N)nn2c(N)c1C#N,?,12,26,1.3,4.3%,0.1
O=C(O)c1cc(-c2ccco2)nn1-c1cccc(Cl)c1,-10,1,-19,0.7,0.0%,3.4
CS(=O)(=O)c1ccccc1-c1nnc(NC(=O)CCS(=O)(=O)c2ccc(Cl)cc2)o1,-11,4,-18,0.5,4.0%,2.5
CC1CN(C(=O)C2(C)CC2(Cl)Cl)CC(C)O1 (stereo not given),-3,-11,12,0.5,1.0%,1.1
COc1ccc(CN(C)C(=O)c2cc(S(=O)(=O)NCc3ccccc3)ccc2C)c(OC)c1,0,-4,-6,0.9,-0.7%,13
CC(c1nc2ccccc2[nH]1)N(C(=O)Cc1csc2ccccc12)c1cccnc1 (stereo not given),-14,-1,nt,1.5,1.8%,-0.8
CC[C@]12c3[nH]c4ccccc4c3CCN1C(=O)C(CC(=O)NC/C=C(\C)CCC=C(C)C)C[C@@H]2C(=O)N1CCN(C(=O)C2CC2)CC1 (stereo not given in full),-4,nt,23,-0.4,?,-1.2
CC(=O)Nc1ccc(NC(=O)c2c(C)nn(-c3ccccc3)c2-n2cccc2)cc1,nt,nt,13,0.6,3.0%,nt
CCOC(=O)c1[nH]c2ccc(OC)cc2c1NC(=O)c1ccc(OC)c(OC)c1,-12,-12,-14,1.3,2.1%,-2.4
COC(=O)c1c(NC(=O)C2CC(C)=C(C)CC2C(=O)O)sc2c1CCCCC2 (stereo not given),-4,-6,4,-0.4,-1.3%,-4.7
CCOc1ccc(NC(=O)CN(C)C(=O)Cc2ccc3c(c2)OCCO3)cc1OCC,-3,-19,-17,-0.4,-0.1%,0.4
COc1ccc([C@H]2CC(=O)C=C(c3ccc(-c4ccccc4)c(F)c3)C2)cc1,0,-10,-15,-0.1,1.8%,-1.5
Cn1c(SCc2ccc(C(C)(C)C)cc2)nnc1C1COc2ccccc2O1 (stereo not given),4,11,0,-0.3,8.0%,2.0
Cc1ccccc1NC(=O)c1cc2sccc2n1Cc1ccc(F)cc1,nt,nt,52,0.4,4.6%,nt
COc1cccc(C(=O)Nc2ccccc2-c2nnc(-c3cc(OC)ccc3Br)o2)c1,nt,nt,12,0.4,-2.8%,nt
Cc1ccc(NC(=O)C/C(N)=N/O)cc1Cl,-1,-17,-2,-0.6,3.8%,-7.2
Cc1sc2nc(CN3CCOCC3)nc(NCCc3ccccc3)c2c1C,-5,-27,0,-0.3,3.4%,-4.1
COC(=O)CCSc1cc(NCCOC(C)=O)c([N+](=O)[O-])c2nonc12,-11,-31,-4,-0.7&-0.1,0.7%&1.7%,-2.8
O=C(CN1C(=O)CCS(=O)(=O)c2ccccc21)Nc1ccc2c(c1)OCCO2,-4,9,3,0.5,-0.1%,-1.9
O=C(CCc1nc2cccnc2n1Cc1cccs1)Nc1cccc(Cl)c1,nt,nt,-2,3.3,1.1%,nt
COc1ccc(N(C(=O)c2cnccn2)C(C(=O)NC2CCCCC2)c2ccc(O)cc2)cc1 (stereo not given),4,0,24,1.4,0.1%,7.8
COC(=O)c1ccccc1NC(=O)C1CCN(C(=O)Cc2ccccc2)CC1,-7,-12,-6,-0.3,-0.5%,-4.2
CC(C)(C)C(=O)Nc1ccc(S(=O)(=O)N2CCCC2)cc1,-2,-15,-8,0.2,3.0%,-4.6
CCN(C(=O)COC(=O)c1ccc(OCc2c(C)noc2C)cc1)c1ccccc1,11,10,46,1.3,1.8%,-3.8
CSc1nc(Sc2ccc(Cl)cc2)c2ccccc2n1,6,2,2,0.1,-1.7%,0.4
COc1cccc(NC(=O)CN(C)C(=O)Cn2c(=O)oc3ccccc32)c1,4,-22,-1,0.0,-1.8%,-2.4
O=C(NC1CCN(S(=O)(=O)c2ccccc2C(F)(F)F)CC1)c1ccco1,3,2,-20,0.2,-0.7%,-1.0
COc1cccc(NC(=O)CN(C)C(=O)c2ccc(NC3CC3)c([N+](=O)[O-])c2)c1,-7,-23,-2,0.7,3.4%,-3.9
COc1ccc(CNC(=S)Nc2cccc(OC)c2)cc1,-3,-6,2,1.1,-0.4%,-1.0
Cc1c(C(=O)OCc2ccccc2)[nH]c2c1C(=O)CC(c1ccc(Cl)cc1)C2 (stereo not given),nt,nt,-22,1.6,5.0%,nt
Cc1cccc(N2CCCC2=Nc2ccc(Br)cc2C#N)c1,19,-1,18,2.5,-1.6%[38.3 µM],-1.1
CCCCn1nnc(NC(=S)NC(=O)c2ccc(-c3cccc(Cl)c3Cl)o2)n1,?,-31,-5,1.9,-2.5%,-2.2
O=C(Nc1cccc(-c2cccc(Cl)c2)c1)C1CCN(Cc2ccc(CO)o2)CC1,-3,-21,-10,0.4,-1.0%,1.5
O=C(OC1CCCCC1=O)c1cc(S(=O)(=O)N2CCOCC2)ccc1F (stereo not given),7,6,-6,-0.2,1.6%,-1.0
CCOc1ccc2nc(N3CCC(C(=O)N4CCN(c5ncccn5)CC4)CC3)sc2c1,5,-2,-4,0.8,1.4%,-1.7
COc1ccc(C(C(N)=O)c2ncc(C(F)(F)F)cc2Cl)cc1OC (stereo not given),8,2,18,0.4,-3.0%,-1.9
COc1cc(/C=C2\SC(=Nc3ccc(O)cc3)NC2=O)cc(OC)c1O,?,8,38,9.3,6.1%,-0.2
Cc1ccc(-c2ccc(CN3C(C(C)C)C(=O)N(Cc4cn(CCC5OCCCO5)nn4)CCS3(=O)=O)cc2)cc1 (stereo not given),-8,1,-3,0.0,0.9%,-1.2
CN(C=[N+](C)C)c1cccc2c1C(=O)c1ccccc1C2=O,-66*,6,-13,0.9,-1.0%,1.2
COc1cc(-c2noc(CSc3nc(-c4ccccc4)cc(=O)[nH]3)n2)cc(OC)c1OC,nt,nt,11,0.9,1.6%,nt
Cc1ccc(S(=O)(=O)Nc2ccc3nc(N)sc3c2)cc1,?,18,2,-1.0,0.2%[38.3 µM],0.2
CCc1c(C)c2ccc(OCC(=O)N(C)C)c(C)c2oc1=O,0,-11,12,-0.8,5.8%[38.3 µM],0.1
Cc1ccc(C)c(CN2CCC(CNC(=O)Nc3ccc(C)c(C)c3)CC2)c1,8,-7,-6,1.6,10%,-0.2
COc1cc(C(=O)NC(=S)NNC(=O)[C@H]2C[C@@H]2c2ccccc2)cc(OC)c1OC,-3,-6,-7,8.6,3.1%,-2.1
Cc1ccc(-n2c(=O)c3c4c(sc3n(Cc3cc(=O)n5ccccc5n3)c2=O)CCC4)cc1C,1,-13,-2&5,-0.4&0.3,4.9%&1.2%,-4.1
COc1ccc(Cl)cc1NC(=O)CCN1C(=O)C2C3C=CC(C4CC34)C2C1=O (stereo not given),0,23,-5,1.0,-2.1%,-2.0
CCOC(=O)c1nn(-c2ccccc2)c(=O)cc1OCC(=O)Nc1ccccc1OCC,3,-10,0,-0.4,0.0%,-3.0
Cn1c(=O)n(C)c2cc(NS(=O)(=O)c3ccc4c(c3)CCCC4)ccc21,-4,-4,47,-0.5,1.4%[38.3 µM],1.1
CC1CCCN(CCCNS(=O)(=O)c2ccc3c(c2)CCN3C(=O)C2CC2)C1 (stereo not given),3,-25,2,-0.7,0.0%,0.7
CCc1nnc(SCC(=O)Nc2ccccc2)n1CC1CCCO1 (stereo not given),-1,13,-7,-0.1,-1.2%,-6.0
CCN(C[C@H]1N[C@@](CC)(C(=O)OC)[C@H]2C(=O)N(C)C(=O)[C@@H]12)S(=O)(=O)c1ccc(-c2ccccc2)cc1,-2,nt,-3,-0.1,-0.8%,-1.9
# (next part)
SMILES,Six1-Eya2 blk,D2 PAM,TRPML1 blocker,TRPML1 ag,PINK1 modulator,D2 ag
CC1=C(C(=O)Nc2ccccc2C(=O)NCCCN2CCN(C)CC2)SCCO1,4,-12,3,-0.8,-1.1%,1.4
CSc1nc(-c2ccco2)nn1C(=O)CCc1ccccc1,-2,-11,-1,-0.8,?,-2.5
O=c1c2sc3ccccc3c2n(Cc2ccc(F)cc2)c(=O)n1Cc1ccco1,nt,nt,22,-0.6,5.0%,nt
NC(=S)N/N=C/c1coc2cc(Br)ccc2c1=O,-6,-8,-9,0.6,-0.6%,4.2
CCNc1ccc(Br)cc(C(=O)/C=C/c2ccc(Cl)cc2Cl)c1=O,-1,4,-1,0.0,-3.7%,1.2
CCOC(=O)c1c(CC(C)C)csc1NC=O,6,10,8,1.2,-0.8%,0.9
CN(C)C(=O)c1ccc(NC(=O)COC(=O)CCN=C2NS(=O)(=O)c3ccccc32)cc1,-1,-3,-5,-0.1,-0.6%,-0.1
CCOC(=O)c1c(NC(=O)c2cc(=O)c3c(C)cc(C)cc3o2)sc(C(C)=O)c1C,nt,nt,12,4.5,-0.4%,nt

# Four entries drawn at random from those above, as already listed:
SMILES,Six1-Eya2 blk,D2 PAM,TRPML1 blocker,TRPML1 ag,PINK1 modulator,D2 ag
COc1cccc(NC(=O)CN(C)C(=O)Cn2c(=O)oc3ccccc32)c1,4,-22,-1,0.0,-1.8%,-2.4
CN(C)C(=O)c1ccc(NC(=O)COC(=O)CCN=C2NS(=O)(=O)c3ccccc32)cc1,-1,-3,-5,-0.1,-0.6%,-0.1
COc1ccc([C@H]2CC(=O)C=C(c3ccc(-c4ccccc4)c(F)c3)C2)cc1,0,-10,-15,-0.1,1.8%,-1.5
COc1ccc(CN(C)C(=O)c2cc(S(=O)(=O)NCc3ccccc3)ccc2C)c(OC)c1,0,-4,-6,0.9,-0.7%,13
